B2AR ag: human beta-2 adrenergic receptor agonism by FAP; 340,000 compounds, 0.43% hits; AID 504454; P07550; Am2.2-beta2AR cells, FAP receptor internalization, flow cytometry; reference of the scale not given here; response, % (concentration not given with the values);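 active = response above a set limit, near 3 SD of response in nonfluorescent compounds, cut at about 42% in these data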;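 note: stock transfer was 100 nL into about 11 µL; a reference agonist was the positive control; negative values mostly stem from fluorescent compounds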
Ecoli growth: blocks Escherichia coli growth; OD600, 23 h; hits give low values; OD600 absorbance (test concentration not listed); 330,000 compounds, 0.21% hits;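 active = OD600 absorbance below the run mean of sample wells minus 3.6 SD, in any replicate, cut at about 0.56 in these data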;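 note: stock transfer was 300 nL into about 60 µL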
LANA-H2B inh: blocks KSHV LANA binding to histone H2A/H2B; cell-free LANA-H2A/H2B peptide, fluorescence polarization; inhibition, % (no concentration beside the values); 320,000 compounds, 0.6% hits; AID 2629; in the data active = inhibition mostly above about 10%, no sharp cut-off; inactive = mostly below about 6.7%;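 note: stock transfer was 7.5 nL into about 10 µL; 0% = median of vehicle wells and 100% = median of positive control wells; one replicate is shown; the record names a cut of 25% in any replicate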
UCH37 DUB inh: blocks the human deubiquitinase UCH37 | purified proteasome/UCH37, Ub-AMC cleavage fluorescence | inhibition, % (test concentration not listed) | 330,000 compounds, 0.33% hits | AID 588478;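 active = mean of two replicates above 20%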;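 note: 0% = compound-free wells with enzyme and 100% = wells lacking proteasome; stock transfer was 100 nL into about 20 µL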
Target sequence (Q9Y5K5 whole entry, looked up): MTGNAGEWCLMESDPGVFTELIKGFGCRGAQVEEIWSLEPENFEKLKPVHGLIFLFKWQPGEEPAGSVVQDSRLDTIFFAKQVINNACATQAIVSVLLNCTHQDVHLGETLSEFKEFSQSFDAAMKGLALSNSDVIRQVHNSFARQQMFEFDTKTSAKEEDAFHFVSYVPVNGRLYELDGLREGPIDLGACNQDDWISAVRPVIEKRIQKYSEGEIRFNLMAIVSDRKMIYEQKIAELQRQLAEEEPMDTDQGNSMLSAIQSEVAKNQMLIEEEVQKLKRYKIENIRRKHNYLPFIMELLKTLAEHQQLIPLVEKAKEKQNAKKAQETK
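Material: human UCH37 enzyme supplied as purified proteasome complex / Amount: 0.15 nM proteasome as dispensed / Buffer or medium: pH 7.4 Tris-HCl (50 mM) with ovalbumin, ATP-MgCl2, DTT / Times: preincubation 30 min, reaction 25 min, room temperature / Technique: AMC fluorescence from Ub-AMC cleavage, excitation 355 nm, emission 460 nm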
Vif A3G: HIV-1 Vif–A3G interaction blockers – biochemical, TR-FRET, GST-Vif 1-94, biotin-A3G peptide, dose response retest, primary screen (AID 1117319). inhibition, %, or IC50 in µM where a hit was titrated. 260,000 compounds, 0.57% hits. TR-FRET GST-Vif / biotin-A3G peptide binding; higher % means a stronger effect; test concentration not given here; strong numbers were not always called active;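 active = above the screen mean plus three standard deviations and confirmed in dose response; inconclusive = results disagree or hit not tested in dose response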;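 note: Vif residues 1-94 fused to GST binding biotinylated APOBEC3G peptide 110-148; 0% = full assay without inhibitor and 100% = GST in place of GST-Vif; retest series ran down from 100 µM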
Bfl-1 A1 inh: inhibitors of the anti-apoptotic protein A1, read as caspase activation; AID 2462; 330,000 compounds, 0.066% hits; MEF A1-2A-BIM cells, Caspase-Glo 3/7 luminescence, 3 h; percent of clofoctol response, vehicle zero; caspase activation, % (concentration not given with the values);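 active = over half of replicate activation scores above 10%, or exactly half above 10 with the replicate mean above 10; inconclusive = replicate mean below 10 yet half the replicates above 10; inactive = over half of replicates below 10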;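 note: wells of about 30 µL received 50 nL stock; many hits fall short of the cut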
HNF4A DNA FP: change in binding of human HNF4 alpha to DNA; HNF4a-FITC DNA binding, fluorescence polarization, 1 h; P41235; AID 1224865; activity change, % at 10 µM; 360,000 compounds, 0.3% hits; in the data active = activity change above about 30%, passing the limit was not always enough;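 note: controls were the assay level and a saturating level of protein; the project sought stronger binding though the title names inhibitors; some compounds called inactive have numbers as strong as hits; positive values seem to mean higher polarization but the record does not say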
Target sequence (P41235 whole entry, looked up): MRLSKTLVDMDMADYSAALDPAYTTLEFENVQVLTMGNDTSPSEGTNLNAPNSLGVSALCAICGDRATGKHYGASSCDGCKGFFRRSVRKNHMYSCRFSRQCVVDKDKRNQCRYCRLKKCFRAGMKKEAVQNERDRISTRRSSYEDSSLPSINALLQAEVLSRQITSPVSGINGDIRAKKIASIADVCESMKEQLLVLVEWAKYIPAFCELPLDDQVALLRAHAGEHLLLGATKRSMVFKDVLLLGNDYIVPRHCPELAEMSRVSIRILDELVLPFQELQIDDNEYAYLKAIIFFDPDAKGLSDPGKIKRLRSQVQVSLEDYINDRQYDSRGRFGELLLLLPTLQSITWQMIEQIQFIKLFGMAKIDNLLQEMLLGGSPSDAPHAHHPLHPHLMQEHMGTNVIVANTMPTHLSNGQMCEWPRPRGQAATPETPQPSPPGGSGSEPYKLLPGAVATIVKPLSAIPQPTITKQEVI
Starred values were filed as active, the others as inactive; i = inactive; ? = inconclusive; . = no result given; & = joins results of further samples. Compounds were not picked by outcome; 2.1% or so of the library scored in one or more.

Below each compound – B2AR ag	Ecoli growth	LANA-H2B inh	UCH37 DUB inh	Vif A3G	Bfl-1 A1 inh	HNF4A DNA FP
1: CCCCn1c(=O)[nH]c(=O)c2c1nc(COC(=O)c1c(C)noc1C)n2CCC
    -0.8	0.749	12.7	-4.1	-2.1%	0.5	-0.6
2: CC1(C)C[C@@H](O)[C@]2(C)CC[C@]3(C)C(=CCC4[C@@]5(C)CC[C@H](O)[C@](C)(CO)C5CC[C@]43C)[C@@H]2C1 (stereo partly specified)
    3.3	0.706	.	1.4	.	.	0.2
3: COc1ccc(N2CCN(c3ncnc4scc(-c5ccc(C)cc5)c34)CC2)cc1
    -2.4	0.682	-0.7	2.2	.	0.1	4.0
4: O=C(NC1CC2CCCC(C1)N2C(=O)Nc1ccccc1)C1CC1 (stereo unspecified)
    -10.4	0.709	-2.1	4.3	?	0.2	1.2
5: CCOc1cccc(CNCCCSc2ncccn2)c1
    12.6	0.688	1.6	1.1	.	0.6	0.4
6: Cc1cc(NC(=O)c2cc3cccc([N+](=O)[O-])c3[nH]2)ccc1F
    14.6	0.609	13.7	5.0	-1.2%	0.2	2.0
7: O=C(CCCOc1ccc(Cl)cc1Cl)NC(Cc1ccccc1)C(=O)O (stereo unspecified)
    -1.9	0.689	.	3.2	2.0%	.	3.3
8: Cc1ccc2nc3c(cc2c1)c(NC(=O)C1CCCO1)nn3CC(C)C (stereo unspecified)
    10.0	0.654	-3.8	-79.1	0.0%	0.4	0.8
9: Cc1cccc(C)c1OCCNC(=O)OCc1ccccc1
    10.5	0.632	6.9	3.8	.	-0.1	-5.5
10: CCc1ccccc1Nc1nc(N)nc(COC(=O)C2CCN(C(=O)c3ccc(F)cc3)CC2)n1
    3.3	0.646	.	5.0	4.0%	.	2.6
11: CC(C)NC(=O)C1CCCN(S(=O)(=O)c2ccc(-n3cnnn3)cc2)C1 (stereo unspecified)
    -18.7	0.684	7.0	1.4	1.6%	-0.9	-1.1
12: CC(C)CNC(=O)COC(=O)C1c2ccccc2Oc2ccccc21
    -17.8	0.675	1.8	0.9	0.0%	-0.4	-2.3
13: Nc1ccccc1SC(C[N+](=O)[O-])c1ccccc1 (stereo unspecified)
    40.2	.	-2.0	.	11.2%	9.4*	-2.3
14: Cc1c(CC(=O)NCCCC(=O)O)c(=O)oc2cc3occ(-c4ccccc4)c3cc12
    -10.0	0.653	1.5	-3.3	8.7%	-0.1	-5.3
15: CC(NC(=O)c1cc2ccccc2o1)c1cccs1 (stereo unspecified)
    -3.7	0.665	1.1	3.2	6.0%	-0.3	0.7
16: COC(=O)[C@@]12CCCCN1[C@H](c1ccc(-c3ccc(F)cc3)c(OC)c1)[C@@H]1C(=O)N(C)C(=O)[C@@H]12
    8.4	.	1.6	1.0	.	-2.1	-1.7
17: CCCCN(C(=O)C1CCN(C(=O)c2ccccc2C)CC1)c1c(N)n(CC(C)C)c(=O)[nH]c1=O
    -4.5	0.639	.	1.2	.	.	0.7
18: O=C(COC(=O)c1ccc(Cl)s1)c1cc2ccccc2o1
    7.3	0.678	-5.1	1.2	5.0%	2.1	19.3
19: COc1ccc(NC(=O)c2cc(-c3cc(C)c(C)cc3O)n[nH]2)c(OC)c1
    5.9	0.678	-8.0	1.8	-0.9%	0.1	2.9
20: CC(=O)c1c(C)[nH]c(C(=O)CN2C(=O)NC(C)(c3ccc4c(c3)OCCO4)C2=O)c1C (stereo unspecified)
    5.6	0.706	.	0.5	4.9%	1.2	-1.8
21: O=C(CNC(=O)c1ccccc1)NCC1COc2ccccc2O1 (stereo unspecified)
    1.1	0.723	8.5	-3.1	-3.5%	1.2	-1.9
22: CCOC(=O)[C@@H]1[C@H]2COc3ccc(Br)cc3[C@@H]2N2C(=O)N(c3ccccc3)C(=O)[C@]12C
    -0.2	0.814	3.8	1.9	.	1.1	1.0
23: COC(=O)[C@H](C)N(Cc1ccc(Cl)c(Cl)c1)S(=O)(=O)CCNC1CCCC1
    7.5	0.666	.	1.1	.	.	-0.1
24: O=c1[nH]nc(SCc2ccccc2)c(=O)[nH]1
    2.3	0.653	3.3	2.0	?	-4.5	-1.6
25: O=C1CC(c2cccc(Br)c2)C2=C(CCCC2=O)N1 (stereo unspecified)
    -0.3	0.696	-4.4	-42.7	4.7%	-0.7	0.4
26: O=[N+]([O-])c1ccc(N2CCOCC2)cc1NCCCO
    9.1	0.654	-3.3	13.2	16.5%	0.5	-1.6
27: CC(C)C(=O)N1CCN(c2ccccc2NC(=S)NC(=O)c2ccco2)CC1
    17.4	0.646	2.8	4.2	.	-0.6	0.1
28: C/C(=N\NC(=O)c1ccccc1O)C1CC1
    -1.3	.	4.9	.	.	0.4	-5.3
29: CCOc1cc(C(=S)N2CCOCC2)ccc1OC(=O)c1ccc(C)cc1
    0.4	0.689	0.2	-1.3	4.9%	-1.2	-1.9
30: c1ccc(C(=C2CCCO2)c2ccccc2)cc1
    0.6	.	.	.	1.9%	.	4.8

(cont.)
Below each compound – B2AR ag	Ecoli growth	LANA-H2B inh	UCH37 DUB inh	Vif A3G	Bfl-1 A1 inh	HNF4A DNA FP
31: COc1cccc(Nc2ncnc3sc(C)cc23)c1
    -5.3	0.675	0.8	0.8	0.0%	0.0	-58.3
32: O=C(CN1C(=O)NC2(CCCC2)C1=O)N1CCN(S(=O)(=O)c2cc(Cl)ccc2Cl)CC1
    -3.6	0.721	5.5	2.8	-3.0%	0.0	6.4
33: CC1(C)Cc2c(c(-c3ccccc3)[nH]c(=O)c2C#N)CS1
    1.5	0.703	1.2	-4.7	-13.5%	0.4	-1.7
34: COCCn1c(SCc2cnc(-c3ccccc3)s2)nnc1-c1ccncc1
    -5.9	0.74	-4.7	0.5	-5.9%	0.8	-0.7
35: CN(C(=O)C(Cl)Cl)c1ccc(OC(=O)c2ccco2)cc1
    0.6	0.669	-10.7&-0.3	5.8	.	0.1	3.3
36: Cc1ccc(Cl)cc1NC(=O)CN1CCOCC1
    -2.4	0.684	-3.1	-0.4	.	-1.5	1.9
37: Cc1onc(-c2c(Cl)cccc2Cl)c1C(=O)c1c[nH]c(C(=O)NC2CC2)c1
    -12.1	0.642	-1.6	3.2	1.7%	1.1	1.8
38: O=C(Nc1cccc(S(=O)(=O)N2CCOCC2)c1)c1cc([N+](=O)[O-])ccc1N1CCOCC1
    -4.0	0.71	7.4	5.7	4.1%	0.5	8.1
39: CSC1=NC2(CCCCC2)CC12C=CC(=O)C=C2
    2.3	0.717	-1.6	2.9	30.9%	0.1	-0.2
40: Cc1ccccc1C(=O)N1CCN(S(=O)(=O)c2ccccc2)CC1
    5.8	0.716	4.8	0.0	.	0.9	1.2
41: O=C(COC(=O)c1cccc([N+](=O)[O-])c1)NCc1cccs1
    -5.2	0.631	0.0	-3.9	-0.3%	-0.6	-0.6
42: Cc1ccccc1OCC(=O)OCC(=O)N1CCc2ccccc21
    6.6	0.662	.	1.1	2.2%	.	1.1
43: COc1cccc(NC(=O)c2cccc(S(=O)(=O)N3CCN(Cc4ccccc4)CC3)c2)c1
    -0.2	0.694	-1.4	3.5	1.6%	-0.1	-4.2
44: Cn1ncc([N+](=O)[O-])c1C(=O)NCc1ccccc1
    3.7	0.618	-6.6	6.1	7.3%	-0.3	-0.4
45: COc1cc(-c2cc(C(=O)N(C)Cc3ccccc3)c3ccccc3n2)cc(OC)c1OC
    18.4	0.656	-2.6	-111.4	.	-0.4	1.4
46: O=C(Cc1ccc(F)cc1)NCCc1ccccc1
    0.1	0.695	-2.8	1.8	-3.4%	-0.6	-0.4
47: CC(=O)c1ccc(-c2ccc(C(=O)NCC3CCCO3)o2)cc1 (stereo unspecified)
    3.0	0.667	.	i	4.2%	0.0	-1.5
48: CC(C)NC(=O)CSc1nnc(COc2ccccc2Cl)o1
    5.8	0.778	-1.3	2.9	12.6%	-0.9	-1.1
49: Cc1occc1-c1nnc(SCC(=O)c2ccc(Cl)cc2)n1CC1CCCO1 (stereo unspecified)
    -6.3	0.736	1.5	0.5	5.8%	0.1	-1.7
50: CC1CC2(CCCCC2)Nc2ccc3ccccc3c21 (stereo unspecified)
    5.2	0.712	-11.3	-33.0	?	0.5	0.7
51: COc1ccc(C2(O)CN(c3ccc(C)cc3)C3=[N+]2CCCC3)cc1 (stereo unspecified)
    -3.6	0.638	1.3	3.8	?	0.6	0.5
52: Cc1ccc(CNCC(O)(c2ccc(F)cc2)c2ccc(F)cc2)cc1
    30.1	0.716	-1.6	6.6	0.8%	0.6	2.0
53: CCC(CC)C(=O)Nc1nnc(S(=O)(=O)N2CCCc3ccccc32)s1
    -2.7	0.735	0.3	4.4	.	0.6	4.7
54: N#Cc1cccc(S(=O)(=O)N2CCN(c3ccnc4cc(Cl)ccc34)CC2)c1
    -2.0	0.728	7.9	5.1	.	-1.5	-1.8
55: O=C(COC(=O)c1cccc(S(=O)(=O)N2CCN(c3ccccc3)CC2)c1)NCc1ccco1
    -3.5	0.719	-5.1	1.5	2.7%&5.6%	0.0	-5.2
56: COc1cc(C2Nc3cc(Cl)c(S(N)(=O)=O)cc3S(=O)(=O)N2)cc(OC)c1OC (stereo unspecified)
    -3.6	0.753	-1.0	-1.6	-1.6%	-0.2	0.4
57: c1ccc(-c2cnc(CSc3nnc4ccccn34)o2)cc1
    -3.0	0.669	-3.5	-0.9	-5.2%	-4.5	-1.8
58: Cc1cccc(NC(=S)NNC(=O)c2csc(C)c2)c1
    4.2	0.72	3.0	0.7	.	-0.6	1.9
59: CCOC(=O)C(Cc1ccc(NC(=O)/C(=C/c2ccc(OC(C)=O)cc2)NC(C)=O)cc1)N1C(=O)c2ccccc2C1=O (stereo unspecified)
    12.3	0.736	-6.6	1.1	16.1%	-1.9	-0.3
60: CCN(CC)CCNC(=O)C(=O)Nc1cc2c3c(c1)CCC(=O)N3CCC2
    2.9	0.652	0.9*	6.9	.	-0.7	-5.2

The results go on:
Below each compound – B2AR ag	Ecoli growth	LANA-H2B inh	UCH37 DUB inh	Vif A3G	Bfl-1 A1 inh	HNF4A DNA FP
61: CCn1c(SCC(=O)Nc2ccccc2F)nnc1-c1ccoc1C
    1.3	0.66	0.0	0.7	-6.3%	-0.1	-4.5
62: CCOC(=O)N1CCN(C(=O)/C(=C/c2ccc(Br)cc2)NC(=O)c2ccc(OC)cc2)CC1
    -0.3	0.658	4.0	-0.1	2.8%	0.4	2.8
63: Cc1ccc(C(CCN(Cc2ccccc2)C(=O)c2ccco2)c2ccco2)cc1 (stereo unspecified)
    18.2	0.671	-4.5	-2.2	9.3%	-0.8	-12.9
64: CCOC(=O)c1sc(NC(=O)CC(C)c2ccccc2)nc1C (stereo unspecified)
    -3.0	0.733	2.0	-1.5	-12.7%	-0.2	2.3
65: COc1ccc(Cl)cc1NC(=S)N1CCN(c2ccccn2)CC1
    -10.5	0.733	0.9	1.3	23.8%	-0.7	-0.1
